D2 ag = activates the human D2 dopamine receptor. P14416. DiscoveRx PathHunter D2 beta-arrestin, luminescence, 90 min; 100% = 57 uM dopamine signal. activation, % (test concentration not listed). 0.084% of 360,000 active. AID 624465; in the data active = activation above about 40%; inconclusive = about 15% to 40%; inactive = below about 15%; also: compound concentration not given in the record; the text of the record calls up to 30% inactive
Target sequence (P14416 whole entry, looked up): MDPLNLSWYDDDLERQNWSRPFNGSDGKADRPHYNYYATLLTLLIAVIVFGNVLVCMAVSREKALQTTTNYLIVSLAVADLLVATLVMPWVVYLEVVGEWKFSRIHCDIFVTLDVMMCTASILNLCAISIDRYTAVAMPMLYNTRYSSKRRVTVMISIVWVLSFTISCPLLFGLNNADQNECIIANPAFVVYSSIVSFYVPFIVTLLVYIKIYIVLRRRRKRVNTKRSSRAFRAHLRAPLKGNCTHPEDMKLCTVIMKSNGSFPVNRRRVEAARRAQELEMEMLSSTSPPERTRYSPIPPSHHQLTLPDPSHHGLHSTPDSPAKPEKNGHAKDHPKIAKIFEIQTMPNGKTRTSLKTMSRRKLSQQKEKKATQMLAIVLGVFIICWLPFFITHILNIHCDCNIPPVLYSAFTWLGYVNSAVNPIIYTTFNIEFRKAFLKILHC
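DiscoveRx PathHunter D2 beta-arrestin cells (2,100/well) attached overnight, then compound-stimulated 90 min at 37 C in HBSS/10 mM HEPES/0.1% Tween-20 buffer; beta-galactosidase complementation read by luminescence after 1 h at ambient temperature. Dopamine 57 uM final (EC100) as control.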
gsp antagonist = antagonists of gsp mutant (McCune-Albright syndrome). gsp-mutant cells, cAMP HTRF, 30 min; control for the full effect not named in the record. Potency, µM (titrated, usually from 76.9 µM), without a hit: at the highest dose activity change, negative = inhibition, actives largely listed as inhibitors. 0.4% of 340,000 active; active = falling curve of any shape with a large fitted effect; inconclusive = falling curve, mostly with a smaller effect; inactive = flat or rising curve; cell line not stated here;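 also: intracellular cAMP measured with PDE inhibitor Ro 20-1724 present during compound exposure; potency is read from the fitted curve at half-maximal effect; % is scaled to controls: 0 for no effect and ±100 for the full control effect; nearly all actives have a fitted effect of over 65% in size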
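HTRF cAMP measurement after 30 min RT detection following 30 min, 37C compound treatment alongside […] (added as 300 uM solution) in G418-selected cells seeded at 2000/well and grown 16–24 h.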
CtBP-E1A blk = CtBP/E1A binding inhibition; activity change, % (concentration not given with the values); 0.49% of 340,000 active; AlphaScreen GST-E1A/His-CtBP binding, 1536-well; hits give low values; control for the full effect not named in the record; in the data active means activity change below about -65%; inconclusive means about -30% to -65%; inactive means above about -30%; also: % is scaled to controls: 0 for no effect and ±100 for the full control effect
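Steps: dispense buffer (Tris pH 8.0, NaCl 300 mM, TCEP 1 mM, BSA, Tween 20); add 5X protein mix (GST-E1A, His-CtBP, 125 nM each); pin 23 nL compound; 2 h at 37 °C, dark; add 5X beads (50 ug/mL); 1 h; read.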
gsp agonist = agonists of gsp mutant (McCune-Albright syndrome) | gsp mutant cells, cAMP HTRF, 30 min; control for the full effect not named in the record | Potency, µM (series often up to 76.9 µM), for the others: top-dose activation (cAMP increase), hits mostly activators | 0.13% of 340,000 active | AID 624287; active = well fitted activation curve with a large enough effect; inconclusive = small, poorly fitted or top-dose-only effect, or another doubt; inactive = no such curve, though single readings can be large or run the other way; cell line not stated here;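 also: phosphodiesterase inhibitor Ro 20-1724 added with compounds to block cAMP breakdown; potency is read from the fitted curve at half-maximal effect; nearly all actives have a fitted effect of over 60% in size; about a fifth of the inactives were tested at one dose only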
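Cells stably selected in G418 were plated at 2000/well, grown 16-24 hr, then given compounds in DMSO with the PDE inhibitor […] (300 uM solution added) for 30 min at 37C; cAMP was read by HTRF.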
D2 PAM = potentiates the human D2 dopamine receptor allosterically; P14416; DiscoveRx D2 beta-arrestin cells, luminescence, 90 min; 100% = 57 uM dopamine signal; potentiation, % (no concentration beside the values); 0.23% of 360,000 active; AID 624464; active = potentiation of 50% or more; inconclusive = 30% to 50%; inactive = 30% or less;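 also: compound concentration not given in the record; tested on top of an EC20 dose of dopamine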
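PathHunter D2 cells, attached overnight at 37 deg C, received compound in DMSO plus dopamine at EC20 (50 nM final) for 90 min at 37 deg C. Beta-arrestin recruitment was read as luminescence after 1 h with detection reagent at ambient temperature.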
Six1-Eya2 inh = blocks human Six1 binding to Eya2; Q15475+O00167; AlphaScreen GST-Six1/His-Eya2 binding, biochemical; hits give low values; control for the full effect not named in the record; activity change, % (test concentration not listed); 0.56% of 360,000 active; AID 651725; in the data active = activity change below about -65%; inconclusive = about -30% to -65%; inactive = above about -30%; also: % is scaled to controls: 0 for no effect and ±100 for the full control effect; compound concentration not given in the record
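GST-Six1 + His-Eya2 (5X stock: 250/500 nM); Tris pH 8.0, 300 mM NaCl, 0.05% BSA, 0.02% Tween 20; GSH donor/Ni acceptor beads; 1 h 37 °C dark; AlphaScreen readout.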
Starred values were filed as active, the others as inactive; u = inconclusive; x = not tested or not shown; & = joins results of further samples; [ ] = another dose, or the depositor's remark.

SMILES | D2 ag | gsp antagonist | CtBP-E1A blk | gsp agonist | D2 PAM | Six1-Eya2 inh
O=C(N/N=C/c1ccccc1)c1ccc(CN2C(=O)c3cccc4cccc2c34)cc1 | -1.5 | 1% | 1 | 2% | -9 | 1
Cc1nc(NCc2ccc3c(c2)OCO3)c2oc3ccccc3c2n1 | 0.2 | 4% | -6 | u | -8 | -10
COc1cc(-c2nnc(COc3ccc4cc(Br)ccc4c3)o2)cc(OC)c1OC | 3.0 | 17% | -7 | -6% | -22 | 3
CCC(c1nnnn1CC1CCCO1)N(CCN1CCOCC1)Cc1cc2cc(C)ccc2[nH]c1=O (stereo not given) | -2.0 | 1% | 3 | 16% | -23 | 2
CSCCC(NC(=O)c1ccccc1Cl)C(=O)OCC(=O)N1CCCC1=O (stereo not given) | -2.8 | 2% | 13 | 5% | -16 | 5
CCC(=O)N1CCN(C(C)=O)C1c1ccccc1 (stereo not given) | -1.6 | 7% | 4 | 9% | -7 | 19
COC(=O)c1nccc2c1[nH]c1ccccc12 | 0.8 | 1% | 0 | -4% | -1 | -14
COc1ccccc1NC(=O)C(C/C=C(/C)Cl)C(C)=O (stereo not given) | -4.6 | -5% | 2 | 4% | -4 | 0
CCOC(=O)C1CCN(C(=O)CCc2nc3ccccc3[nH]2)CC1 | 0.2 | -1% | 5 | 6% | -5 | 11
COc1cc(C(O)c2nc(-c3cccc4cccnc34)cs2)ccc1F (stereo not given) | 3.1 | x | 8 | x | -5 | 4
O=C(O)c1cccc(Sc2cc(Cl)ccc2C(=O)O)c1 | -4.3 | 8% | -8 | x | -24 | 0
O=C(C1CCCN(S(=O)(=O)c2ccccc2[N+](=O)[O-])C1)N1CCN(c2ccccc2)CC1 (stereo not given) | -1.4 | -13% | -3 | -8% | -8 | -15
Cc1ccc(S(=O)(=O)NCCN(CCNS(=O)(=O)c2ccc(C)cc2)S(C)(=O)=O)cc1 | -0.1 | -13% | 0 | -23% | 19 | 5
CCOc1ccc(CN(C)C(C)C(=O)NCc2ccccc2)cc1 (stereo not given) | -1.9 | 5% | 4 | -10% | 1 | 3
O=C(CN1CCOCC1)Nc1cccc(S(=O)(=O)N2CCCCCC2)c1 | -2.9 | -9% | -2 | -4%[15.4 µM] | 2 | 9
O=S(=O)(c1cccc(S(=O)(=O)N2CCCC2)c1)N1CCCCC1 | 0.2 | -10% | 5 | 20%[15.4 µM] | 0 | 13
COc1cc(C(=O)c2c(C)c(CCC#N)n3ccccc23)cc(OC)c1OC | 0.7 | 15% | 3 | -2% | -3 | -7
Nc1[nH][nH]c(=O)c1N=Nc1ccccc1 | -2.8 | -27% | 10 | -13%[15.4 µM] | -11 | -10
Cc1ccccc1C(=O)NC1CC2CCCC(C1)N2Cc1ccc(Cl)cc1 (stereo not given) | -7.4 | 14% | 12 | -23% | -27 | -2
CCc1nn(C(C)C(=O)N2CCN(Cc3ccccc3)CC2)c(=O)c2cc3occc3n12 (stereo not given) | -4.7 | -11% | -3 | -23% | -18 | -12

For reference, part of the list above.
SMILES | D2 ag | gsp antagonist | CtBP-E1A blk | gsp agonist | D2 PAM | Six1-Eya2 inh
O=S(=O)(c1cccc(S(=O)(=O)N2CCCC2)c1)N1CCCCC1 | 0.2 | -10% | 5 | 20%[15.4 µM] | 0 | 13
COc1cc(C(=O)c2c(C)c(CCC#N)n3ccccc23)cc(OC)c1OC | 0.7 | 15% | 3 | -2% | -3 | -7
Nc1[nH][nH]c(=O)c1N=Nc1ccccc1 | -2.8 | -27% | 10 | -13%[15.4 µM] | -11 | -10

Further structures follow:
SMILES | D2 ag | gsp antagonist | CtBP-E1A blk | gsp agonist | D2 PAM | Six1-Eya2 inh
COc1cccc(C(=O)C2CCCN(Cc3cccn3-c3ccccn3)C2)c1 (stereo not given) | -2.3 | 4% | -8 | -20%[15.4 µM] | -20 | -12
Cc1ccc(C(C)C)c(OCCNCc2ccccc2)c1 | 11 | 8% | x | -6% | -5 | 12
N#CCOc1ccccc1/C=N/n1nnnc1N | -3.9 | 0% | -8 | 7%[15.4 µM] | -8 | -23
CSc1nc(-c2ccc(Cl)cc2)nn1C(=O)c1ccccc1 | -3.3 | 4% | 12 | -2%[15.4 µM] | -5 | -7
CSc1ccc(C(=S)N2CCN(C)CC2)cc1 | -3.2 | -2% | 7 | 1% | -19 | -4
CCN(Cc1ccccc1)C(c1cccs1)c1nnnn1C1CCCCC1 (stereo not given) | -4.4 | -14% | 4 | -1% | -30 | 5
CC(C)c1ccc(NC(=O)Nc2nnc([C@H]3C[C@H](O)[C@@H](CO)O3)s2)cc1 | -2.6 | x | -7 | x | 1 | -2
COc1ccc(C(=O)COC(=O)C2CCCN2C(=O)C23CC4CC(CC(C4)C2)C3)cc1 (stereo not given) | -3.5 | -14% | 2 | 0% | -2 | 3
Cc1ccc(CNC(=O)c2c(C)cc(=O)oc2C)cc1 | -1.4 | -2% | 3 | 3% | -10 | -1
Cc1cc([N+](=O)[O-])nn1CCCC(=O)NC1CCCCC1 | -3.6 | 11% | 0 | -38% | -13 | 7
Nn1c(C2CCC2)nc2ccccc2c1=O | -7.1 | 5% | -16 | 28% | -4 | 1
COc1ccc(C2=NS(=O)(=O)N(C)C(C(=O)N3CCOCC3)=C2)cc1 | -5.3 | 11% | 1 | u | -8 | 5
COc1ccccc1CCNC(=O)C(=O)NCC1OCCN1C(=O)c1ccc(Cl)cc1 (stereo not given) | -0.6 | -2% | 4 | 6% | -3 | 0
Cc1nn(-c2ccccc2)c2c1C1(C(=O)N3c4c(cccc41)C(C)CC3(C)C)C(C#N)=C(N)O2 (stereo not given) | 2.2 | -13% | -7 | -52%[inhibitor] | 25 | -8
CCOc1ccc2c(c1)C(c1cccs1)=NNC(c1cccnc1)=N2 | -1.6 | -4% | -15 | 2%[15.4 µM] | -8 | -13
CCS(=O)(=O)N1CCN(S(=O)(=O)c2ccc(F)cc2)CC1 | 2.2 | -2% | -3 | -41%[inhibitor] | -4 | -2
COC(=O)c1sccc1NC(=S)Nc1ccc(F)cc1 | -2.0 | -1% | -7 | 32% | -25 | -12
Brc1ccccc1-c1nnc(CSc2nnnn2-c2ccccc2)o1 | 3.3 | -6% | 0 | -40%[inhibitor] | -10 | 0
Cc1ccnc(NC(=O)CCCc2c[nH]c3ccccc23)c1 | -1.3 | -2% | -10 | 22% | 5 | -10
CCNS(=O)(=O)c1ccc(NC(=O)c2cncc(Br)c2)cc1 | 1.0 | 14% | 2 | 17% | 10 | 7
CCC(=O)N(Cc1ccc(S(N)(=O)=O)cc1)C1CC(=O)N(c2ccccc2)C1=O (stereo not given) | -4.1 | 1% | x | u | -1 | -2
CCC(C)Sc1nc2c(c(=O)[nH]c(=O)n2C)n1CC(O)COc1cccc2ccccc12 (stereo not given) | -6.8 | -1% | -5 | 4% | 1 | 0
OC(c1ccccc1)(c1ccccc1)c1nccc2ccccc12 | -3.0 | -13% | -1 | -57%[inhibitor] | -8 | 6
COCCN1C(=O)N(C)[C@@H](c2ccccc2)C(C(C)=O)=C1C | -2.9 | -1% | 6 | x | -8 | 2
COc1ccc(/C=C/C(=O)Nc2ccc3c(c2)CCC3)cc1OC | -3.6 | -27% | -19 | -23% | -21 | -2
CCOc1ccc(Nc2nc(N)nc(CN(C)C3CCCCC3)n2)cc1 | -1.3 | 10% | -15 | 0%[15.4 µM] | -9 | u
Oc1ccc(Oc2ncc(Cl)cc2Cl)cc1 | -0.8 | 10% | 0 | 27% | -9 | 0
CC(C)(C)OC(=O)C[C@@H]1C/C=C\C[C@@H](CC(=O)N(CCO)Cc2ccccc2)C(=O)N2CCC[C@@H]2COC1=O | -1.3 | -7% | 4 | x | -12 | 5
CS(=O)(=O)N(C(=O)NC(=O)NC1CCS(=O)(=O)C1)C1CCCCC1 (stereo not given) | -2.0 | 1% | 6 | -3% | -13 | 1
O=C(NCCC1=CCCCC1)C1COc2ccccc2O1 (stereo not given) | 0.6 | -3% | 10 | 1% | -5 | 8
COc1cccc(/C=N/Nc2cc(N3CCOCC3)ncn2)c1O | -8.5 | 17% | -94* | 0% | -16 | -91*
Cc1c(Cl)cccc1NC(=O)CSCc1cc(=O)[nH][nH]1 | -0.9 | 7% | 8 | -35% | -17 | 13
CC(C)OCCCNc1ncc2c(n1)CC(c1ccccc1)CC2=O (stereo not given) | -4.2 | -4% | -9 | -25%[15.4 µM] | -3 | -6
Cc1ccc(C(=O)N2CCN(Cc3ccccc3)CC2)o1 | 10.0 | 1% | -16 | u | -45 | -19
O=[N+]([O-])c1cccnc1N1CCC(c2cc(-c3cccc(C(F)(F)F)c3)n[nH]2)CC1 | -1.7 | -2% | -19 | -1% | 2 | -24
O=C(CN1c2ccccc2Sc2ccccc21)N/N=C/c1ccc(Cl)cc1Cl | 4.3 | -4% | x | 21% | 10 | -2
CC(C)OC(=O)c1sc2nc(-c3ccccc3)ccc2c1N | 2.8 | 8% | 32 | 32% | -3 | 33
CCN(C(=S)NCc1ccccc1)c1cccc2ccccc12 | -2.7 | -8% | 7 | 2% | -6 | 8
N#Cc1cc(C#N)c(SCC(=O)N2CC(=O)Nc3ccccc32)nc1N | -2.7 | 1% | x | u | -14 | -17
CNc1cncc(-c2ccc(CN3CCOCC3)cc2)n1 | -5.1 | x | -1 | x | -20 | 14
Cc1ccc2nc(=O)c(NNc3ccccc3)cnc2c1 | 3.9 | -21% | 5 | -10% | 2&4 | -8&0
Cc1ccc(-n2nnnc2CNC(=O)c2ccc3c(c2)OCO3)cc1C | -6.4 | -9% | 0 | -28% | -3 | 0
CCC(CC)C(=O)Nc1cc(C)c2c(=O)oc3ccccc3c2n1 | 1.8 | -7% | -5 | -25% | -1 | -17
Cc1ccc(Cn2ccc(NC(=O)c3c(-c4ccccc4Cl)noc3C)n2)cc1 | -0.4 | -11% | 4 | -19% | -16 | 6
Cc1cc(C(=O)N2CCc3ccccc3C2)n[nH]1 | -3.2 | 14% | 2 | -2% | -23 | 1
O=C1CCC(=O)N1CCSC(=S)N1CCOCC1 | -4.5 | 11% | 5 | 26%[15.4 µM] | -3 | 3
COc1ccc(OC)c(CN2CCN(CCc3ccccc3)C(CCO)C2)c1 (stereo not given) | -6.3 | 1% | -5 | 1%[15.4 µM] | -9 | -6

Some of the entries so far, field by field.
canonical_smiles: Cc1ccc(-n2nnnc2CNC(=O)c2ccc3c(c2)OCO3)cc1C
  D2 ag = -6.4
  gsp antagonist = -9%
  CtBP-E1A blk = 0
  gsp agonist = -28%
  D2 PAM = -3
  Six1-Eya2 inh = 0
canonical_smiles: Cc1ccc(Cn2ccc(NC(=O)c3c(-c4ccccc4Cl)noc3C)n2)cc1
  D2 ag = -0.4
  gsp antagonist = -11%
  CtBP-E1A blk = 4
  gsp agonist = -19%
  D2 PAM = -16
  Six1-Eya2 inh = 6
canonical_smiles: CCC(CC)C(=O)Nc1cc(C)c2c(=O)oc3ccccc3c2n1
  D2 ag = 1.8
  gsp antagonist = -7%
  CtBP-E1A blk = -5
  gsp agonist = -25%
  D2 PAM = -1
  Six1-Eya2 inh = -17

Bioassay records from PubChem.

The order is random; overall some 1.4% were active at least once.
